Assay outcomes deposited in PubChem by Johns Hopkins Ion Channel Center.
KCNQ2 inh: KCNQ2 potassium channel inhibitors, primary screen, cell-based, CHO-K1, FluxOR thallium flux, B-score (AID 2156). B-score at 10 µM. 20 min; stronger effect = lower value; only compounds with negative scores are shown here; some inactives read as strong as hits. 1.1% of 310,000 active;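 active = fluorescence ratio B-score at most minus 3 library SDs, with starting brightness B-score within 2 library SDs, cut at about -5.5 in these data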
Target sequence (O88943 whole entry, looked up): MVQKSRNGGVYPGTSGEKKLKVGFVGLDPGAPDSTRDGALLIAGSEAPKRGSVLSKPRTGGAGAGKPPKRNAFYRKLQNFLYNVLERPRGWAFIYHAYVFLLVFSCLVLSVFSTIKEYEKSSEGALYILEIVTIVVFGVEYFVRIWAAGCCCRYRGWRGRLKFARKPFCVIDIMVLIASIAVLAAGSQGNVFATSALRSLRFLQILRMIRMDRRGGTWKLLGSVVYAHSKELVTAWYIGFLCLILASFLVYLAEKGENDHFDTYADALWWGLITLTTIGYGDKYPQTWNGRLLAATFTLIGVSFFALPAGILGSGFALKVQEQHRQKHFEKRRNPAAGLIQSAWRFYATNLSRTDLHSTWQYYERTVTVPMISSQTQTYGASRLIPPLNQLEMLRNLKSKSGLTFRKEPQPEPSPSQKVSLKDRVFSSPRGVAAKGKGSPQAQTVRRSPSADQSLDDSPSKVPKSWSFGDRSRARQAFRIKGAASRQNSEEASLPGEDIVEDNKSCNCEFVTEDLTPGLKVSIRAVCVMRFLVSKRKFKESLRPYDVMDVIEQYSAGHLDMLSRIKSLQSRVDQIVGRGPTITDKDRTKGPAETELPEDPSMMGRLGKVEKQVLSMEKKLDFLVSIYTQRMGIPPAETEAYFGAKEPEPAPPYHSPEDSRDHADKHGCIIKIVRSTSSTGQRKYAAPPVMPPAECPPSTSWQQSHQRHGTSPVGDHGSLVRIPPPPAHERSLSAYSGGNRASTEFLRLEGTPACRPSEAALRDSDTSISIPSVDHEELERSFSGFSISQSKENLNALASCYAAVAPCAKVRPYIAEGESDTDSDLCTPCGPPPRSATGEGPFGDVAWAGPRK
KCNQ2 inh baseline: recorded beside KCNQ2 inh, whose call it bears; B-score; measured here: initial fluorescence intensity artifact check;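 brightness before thallium and not channel activity; 0 = typical well and far values either way flag optical interference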
Active calls of the source: *; i = inactive. Only part of the results is shown; rates above refer to the full screens.

KCNQ2 inh,KCNQ2 inh baseline,SMILES
i,-0.03,COc1cc(/C=N/O)cc(Br)c1OCc1cccc(Cl)c1
i,0.22,CCN(CC)S(=O)(=O)c1ccc2c(c1)nc(CCC(=O)OCc1c(C)noc1C)n2C
i,-0.01,Cc1ccc(C(=O)COC(=O)C(C)N2C(=O)C3C4CCC(C4)C3C2=O)cc1C (configuration not stated)
i,1.34,N#Cc1nc(COc2ccc(Br)cc2)oc1N1CCCCCC1
i,1.74,Cc1c(C#N)c2ccccc2n1CC(=O)NCCc1c[nH]c2ccccc12
i,-0.04,Cn1nc(-c2ccccc2)nc1-c1ccccc1
i,1.53,Oc1cccc(N2Cc3ccccc3C2)c1
i,46,CCc1ccc(Nc2n[n+](-c3ccccc3)c(-c3ccc(N(CC)CC)cc3)s2)cc1

Complete entries, quoted from the list:
N#Cc1nc(COc2ccc(Br)cc2)oc1N1CCCCCC1 across the screens: KCNQ2 inh = i; KCNQ2 inh baseline = 1.34
Cc1c(C#N)c2ccccc2n1CC(=O)NCCc1c[nH]c2ccccc12 across the screens: KCNQ2 inh = i; KCNQ2 inh baseline = 1.74
CCc1ccc(Nc2n[n+](-c3ccccc3)c(-c3ccc(N(CC)CC)cc3)s2)cc1 across the screens: KCNQ2 inh = i; KCNQ2 inh baseline = 46

New compounds follow:
KCNQ2 inh,KCNQ2 inh baseline,SMILES
i,-0.86,O=c1c2ccccc2nc(-c2cccs2)n1-c1ccc2ccccc2c1
-6.72*,0.35*,COc1ccccc1OCC(=O)NN=C(Cc1ccccc1)Cc1ccccc1
i,0.82,Cc1cccc(/C=N/n2c(-c3ccccc3)n[nH]c2=S)c1O
i,-0.51,CC(C)(C)c1cc(-n2ccnc2)n2ncc(-c3ccc(Cl)cc3)c2n1
i,-0.95,Cc1ccccc1NC1=C(Cl)C(=O)N(C2CCCCC2)C1=O
i,1.49,Cc1ccc(S(=O)(=O)N(C)CC(=O)OCC(=O)Nc2ccccc2)cc1
i,-3.49,Cc1ccc(C)c(N(CC(=O)NC2CCCC2)C(=O)c2cc3cc4cccc(C)c4nc3s2)c1
i,2.63,O=C(N/N=C\c1ccc(-c2ccc([N+](=O)[O-])cc2)o1)c1ccc2c(c1)OCO2
i,1.93,NC(=O)CC(NC(=O)Cc1ccc(Cl)cc1)c1ccc(N2CCC(Cc3ccccc3)CC2)c([N+](=O)[O-])c1 (configuration not stated)
i,-0.81,Cc1cc(NC(C)c2ccccc2)n2ncc(-c3ccccc3)c2n1 (configuration not stated)
i,-0.05,CCc1ccccc1N1C(=O)CN(Cc2cc(OC)c(OC)c(OC)c2)C1=S
i,1.1,CCC(C)NC(=O)c1ccccc1NS(=O)(=O)c1ccc(OC)c(OC)c1 (configuration not stated)
i,0.57,COC(=O)c1cnc(SCC(=O)c2ccccc2)n1C
i,0.51,O=C(Nc1ccc2c(c1)C(=O)N(c1ccccc1)C2=O)C1CCCO1 (configuration not stated)
i,1.82,O=C(CNCC1CCCO1)NCc1ccco1 (configuration not stated)
i,0.84,COc1ccc(NC(=O)N2CCNC(=O)C2CC(=O)Nc2ccc(F)cc2)cc1 (configuration not stated)
i,-0.07,O=C(CSc1nnc(NC(=O)C2CCC2)s1)Nc1ccccc1F
i,-0.2,CC#CC(=O)N1CCC(CO)(CCc2ccccc2)CC1
i,2.23,COCCN(C(=O)CC1C(=O)NCCN1CC(c1ccccc1)c1ccccc1)C(C)C (configuration not stated)
i,-0.01,CSCCOC(=O)COc1ccc(/C=N/NC(=O)c2c(Cl)cnn2C)cc1
i,-2.32,CC1(C)CC(=O)c2c(S(C)(=O)=O)sc(Br)c2C1
i,-1.79,COc1ccc2c(c1OC)C(=O)N1c3ccccc3C(=O)N(c3ccccc3)C21 (configuration not stated)
i,0.18,Cn1c(=O)c2[nH]c(C3CCCC3)nc2n(C)c1=O
i,-0.45,CCOc1ccccc1Nc1cc(C)nc2ccc(C)cc12
i,-0.16,O=C(CC(c1ccccc1)c1ccccc1O)NCc1ccccc1Cl (configuration not stated)
i,0.49,CCOC(=O)CCc1c(C)c2ccc(OCC(=O)N(CC)CC)c(C)c2oc1=O
i,0.1,COC(C(=O)Nc1cc([N+](=O)[O-])ccc1C)c1ccccc1 (configuration not stated)
i,1.39,O=C1OC(Cc2ccncc2)C(O)=C1C1=NCCCN1 (configuration not stated)
i,1.58,O=c1oc2ccc([N+](=O)[O-])cc2c(N2CCOCC2)c1[N+](=O)[O-]
i,-0.08,CCOc1ccccc1NC(=O)CC1Nc2ccccc2NC1=O (configuration not stated)
i,-1.79,CSCC[C@H](NC(=O)[C@H](Cc1ccccc1)n1c(=O)[nH]c2ccccc2c1=O)C(=O)N[C@@H](Cc1ccccc1)C(=O)O
i,3.23,O=[N+]([O-])c1ncccc1OCc1ccccc1Br

Grouped by structure, the compounds so far containing a furan ring, fused or not (2)
KCNQ2 inh,KCNQ2 inh baseline,SMILES
i,2.63,O=C(N/N=C\c1ccc(-c2ccc([N+](=O)[O-])cc2)o1)c1ccc2c(c1)OCO2
i,1.82,O=C(CNCC1CCCO1)NCc1ccco1 (configuration not stated)

Carrying on:
KCNQ2 inh,KCNQ2 inh baseline,SMILES
i,-0.09,CN1CCC(=O)N([C@H](CN=[N+]=[N-])c2ccccc2)CC1
i,-1.49,Cc1cc(=O)oc2cc(OCC(=O)NC3CCN(Cc4ccccc4)CC3)c(Cl)cc12
i,-0.68,Cc1onc(-c2c(F)cccc2Cl)c1C(=O)NC(=S)Nc1c(C)n(C)n(-c2ccccc2)c1=O
i,0.08,O=C(C[n+]1ccccc1)N/N=C/c1ccccc1F
i,-1.15,Cc1ccc(CC2CC(=O)N(Cc3ccco3)C2=O)cc1 (configuration not stated)
i,0.52,COc1cccc(CNC(=O)CCC2CCCN(C(=O)c3ccccc3N(C)C)C2)c1 (configuration not stated)
i,-0.42,NNc1nc2c(F)cc(F)cc2s1
i,-0.65,Fc1ccc2[nH]c3c(NCc4ccccc4)ncnc3c2c1
i,0.16,O=C(NC(=S)Nc1ccc2oc(=O)ccc2c1)c1cccc(F)c1
i,-1.51,CCCCCC(=O)Nc1cccc(C2=NOC3(C2)C[C@H](C(N)=O)N(C(=O)[C@H]2CCC(=O)N2)C3)c1 (some centres not stated)
i,-1.12,CC(C)n1nnnc1SCC(=O)Nc1ccccc1F
i,-0.05,O=C(O)C[C@H]1c2ccc(C(F)(F)F)cc2S(=O)(=O)N1C1CCCCC1
i,-1.83,CN(C(=O)c1ccc(NC(=O)Cc2ccccc2)cc1)c1ccccc1
i,0.11,Cc1cn2c(=O)c(C(=O)N3CCN(c4ccccc4)CC3)cnc2s1
i,-1.47,COc1ccc2cc(CCNC(=O)c3cc4ccccc4o3)c(=O)[nH]c2c1
i,0.38,Cn1c(=O)c2c(nc(NCCCO)n2CCc2ccccc2)n(C)c1=O
i,-0.53,Cc1ccccc1N(Cc1nnc2n1CCCCC2)C(=O)Nc1ccccc1
i,-1.79,Cn1c(SCC(=O)N2CCCC2=O)nc2ccccc21
i,-0.54,CCNc1ccc(C(=O)OCC(=O)NC(C)c2ccccc2)cc1[N+](=O)[O-] (configuration not stated)
i,-0.64,COc1c2c(c(C)c3c1C(=O)OC3)O[C@@]1(C)CC[C@@]3(O)C(C)(C)OC(=O)CC[C@]3(C)[C@H]1C2
i,0.1,CSc1nnc(-c2ccco2)c(-c2ccco2)n1
i,-1.22,CCOC(=O)/C=c1\s/c(=C\c2ccc(C#N)cc2)c(=O)n1CC(=O)NCc1ccco1
i,-0.58,Cc1ccc(-c2cc3nc4c(c(=O)n3[nH]2)CCCC4)cc1
i,2.08,Cn1c(=O)c2c(nc(NC(Cc3ccccc3)C(=O)O)n2Cc2ccccc2)n(C)c1=O (configuration not stated)
i,-0.73,CC(C)c1ccc(OCC(=O)Nc2cccc(C(=O)Nc3ccccc3C(=O)O)c2)cc1
i,1.37,Cc1cccc2nc(-c3ccccc3)nc(N[C@@H](CO)c3ccccc3)c12
i,0.97,COc1ccccc1N1CCN(S(=O)(=O)c2ccc3c(c2)oc(=O)n3C)CC1
i,-1,COc1ccc(OC)c(N(CC(=O)N2CCC(C)CC2)S(=O)(=O)c2ccc(OC)c(OC)c2)c1
i,2.28,Cc1ccccc1S(=O)(=O)c1cc(C#N)c(=O)[nH]c1N
i,1.51,COc1ccccc1OCCn1cc(C(=O)O)c2ccccc21
-7.22*,0.6*,COc1cc2c(cc1NC(=O)c1ccc(C(C)(C)C)cc1)CCCC2
i,0.32,CC(=C1C(=O)c2ccccc2C1=O)N1CCN(c2ccc(F)cc2)CC1
i,0.17,CCOc1ccc(C(=O)Nc2c3c(nn2C(C)(C)C)CSC3)cc1OCC
i,0.08,CCOc1cc(/C=C2/SC(=S)N(C)C2=O)ccc1Oc1ccc([N+](=O)[O-])cc1[N+](=O)[O-]
i,-0.78,CC(=O)Nc1ccc(NC(=O)c2cc(C)nn2-c2ccccc2)cc1
i,0.73,Cc1ccc(C(=O)Nc2ccon2)cc1S(=O)(=O)N1CCCCCC1
i,-1.34,CCC1CCCCN1S(=O)(=O)c1ccc(NC(=O)c2cccs2)cc1 (configuration not stated)
i,0.68,CCC(=O)Nc1cc(-c2nc3ncccc3o2)ccc1Cl
i,1.2,CCCc1nc2sc(C(=O)OCC)c(N)c2c2c1COC(C)(C)C2
i,-0.32,Cc1ccc(N2C(=O)CC(Sc3nc4ccccc4o3)C2=O)cc1Cl (configuration not stated)
i,0.15,O=c1[nH]c(C2CCCCC2)nc2ccccc12
i,0.02,CC(=O)c1cc(-c2ccc(F)cc2)n(CCC(=O)NC(C)(C)C)c1C
i,0.74,CC(=O)c1c(C)[nH]c(C(=O)OCC(=O)Nc2ccccc2Cl)c1C
i,-0.85,Cc1cc2ccccn2c1C(=O)c1cc([N+](=O)[O-])cc([N+](=O)[O-])c1
i,-0.4,Cn1cc(Cl)nc1C(O)c1ccccc1 (configuration not stated)
i,0.6,CC(OC(=O)CCc1nc2ccccc2[nH]c1=O)c1ccccc1 (configuration not stated)
i,-2.4,CC(C)C(NC(=O)CN1C(=O)c2ccccc2C1=O)c1ccccc1 (configuration not stated)
i,0.64,Cc1cc(NC(=O)CSc2nc3c(sc4ccccc43)c(=O)n2CCc2ccccc2)n[nH]1
i,0.09,COc1ccc(CC2(C)OC(c3ccncc3)=NN2C(C)=O)cc1 (configuration not stated)
-6.19*,-2*,O=C(CSc1ncnc2scc(-c3ccccc3)c12)N1CCN(c2ccccc2F)CC1
i,-0.54,CCC1(c2ccccc2)NC(=O)N(CC(=O)Nc2ccccc2C(=O)NC2CC2)C1=O (configuration not stated)
i,-1.66,Cc1cc(NC(=O)CS(=O)(=O)c2cn(Cc3ccc(F)cc3)c3ccccc23)no1
i,-2.93,Cc1cc(O)c(C(C)C)cc1N=Cc1ccccc1O
i,-0.19,COc1ccc(C(=O)N/C(=C\c2cn(C)c3ccccc23)C(=O)OCCN(C)C)cc1
i,0.08,O=C(Nc1ccccc1)C(=O)c1c[nH]c2ccccc12
i,1.38,CCOC(=O)/C=C1\SCC(=O)N1CC(=O)Nc1cccc(F)c1

Compounds above that contain bromine, in the order listed:
KCNQ2 inh,KCNQ2 inh baseline,SMILES
i,-0.03,COc1cc(/C=N/O)cc(Br)c1OCc1cccc(Cl)c1
i,1.34,N#Cc1nc(COc2ccc(Br)cc2)oc1N1CCCCCC1
i,-2.32,CC1(C)CC(=O)c2c(S(C)(=O)=O)sc(Br)c2C1
i,3.23,O=[N+]([O-])c1ncccc1OCc1ccccc1Br

Continued.
KCNQ2 inh,KCNQ2 inh baseline,SMILES
i,-1.39,COC(=O)c1c(C)n(-c2ccc(OC)cc2)c2ccc(O)cc12
i,0.28,Cc1ccnc(NC(=O)CNC(=O)c2ccccc2)c1
i,-0.48,COc1ccc(-c2nnn(CC(=O)N(Cc3cccs3)C(C)C(=O)NCCC(C)C)n2)cc1OC (configuration not stated)
i,-0.75,Cc1cc(C)n(/N=C/c2ccccc2O)c(=O)c1
i,-0.35,OC(COc1ccc(Cl)cc1Cl)Cn1ccnc1 (configuration not stated)
i,-1.1,CCOC(=O)c1cc(-c2ccccc2)nc2c1c(C)nn2-c1ccccn1
i,0.02,COc1cc(/C=N/Nc2nc(Nc3ccc(C)cc3)nc(-n3nc(C)cc3C)n2)cc(OC)c1OC
i,1.2,Cc1c(CN2CCC(C(=O)Nc3cccc(-c4cccc(Cl)c4)c3)CC2)cnn1C

An excerpt from above in order of formula weight, low to high.
KCNQ2 inh,KCNQ2 inh baseline,SMILES
i,-0.75,Cc1cc(C)n(/N=C/c2ccccc2O)c(=O)c1
i,-1.39,COC(=O)c1c(C)n(-c2ccc(OC)cc2)c2ccc(O)cc12
i,-1.1,CCOC(=O)c1cc(-c2ccccc2)nc2c1c(C)nn2-c1ccccn1

(continued)
KCNQ2 inh,KCNQ2 inh baseline,SMILES
i,-0.64,COc1ccc(NC(=O)c2sc3cc(C(F)(F)F)cnc3c2-c2cccs2)cc1
i,-0.09,O=C(NCc1ccccc1)c1ccc(C2SCC(=O)N2Cc2ccccc2)cc1 (configuration not stated)
i,1.33,CCC/C=C(\CCC)C(NC(=O)OCC(C)C)c1ccc(C(=O)OC)cc1 (configuration not stated)
i,0.19,O=C(Nc1ccccc1)N1CCC(C(=O)N(Cc2ccco2)Cc2cccs2)CC1
i,-1.06,Cn1cccc1C(=O)NC(=O)COC(=O)c1ccccc1O
i,-0.25,O=S(=O)(N1CCCCCC1)N1CCNCC1
i,1.11,Cc1ccc2nsnc2c1S(=O)(=O)N1CCN(CCc2ccccc2)CC1
i,0.21,CCN(CC)/C(=N\S(=O)(=O)c1ccc(F)cc1)c1ccccc1
i,0.38,Cc1nc2ccccc2nc1NS(=O)(=O)c1ccc(N)cc1
i,-0.98,Cc1cc(C)n2c(SCC(=O)NC3CCCC(C)C3C)nnc2n1 (configuration not stated)
i,-0.37,COc1cc(C(=O)NCC(=O)OCC(=O)Nc2ncc(Cl)cc2Cl)cc(OC)c1OC
i,1.55,Cc1ccc(OCC(=O)O/N=C(\N)c2ccccn2)cc1
